KCNQ2 block – KCNQ2 channel blockers in CHO-K1 cells – cell-based, FluxOR thallium flux, B-score, primary screen (AID 2156); O88943; 20 min; active compounds read low; only compounds with negative scores are shown here; some inactives read as strong as hits; B-score at 10 µM; 310,000 compounds, 1.1% hits;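 active means fluorescence ratio B-score at most minus 3 library SDs, with starting brightness B-score within 2 library SDs, cut at about -5.5 in these data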
Target sequence (O88943 whole entry, looked up): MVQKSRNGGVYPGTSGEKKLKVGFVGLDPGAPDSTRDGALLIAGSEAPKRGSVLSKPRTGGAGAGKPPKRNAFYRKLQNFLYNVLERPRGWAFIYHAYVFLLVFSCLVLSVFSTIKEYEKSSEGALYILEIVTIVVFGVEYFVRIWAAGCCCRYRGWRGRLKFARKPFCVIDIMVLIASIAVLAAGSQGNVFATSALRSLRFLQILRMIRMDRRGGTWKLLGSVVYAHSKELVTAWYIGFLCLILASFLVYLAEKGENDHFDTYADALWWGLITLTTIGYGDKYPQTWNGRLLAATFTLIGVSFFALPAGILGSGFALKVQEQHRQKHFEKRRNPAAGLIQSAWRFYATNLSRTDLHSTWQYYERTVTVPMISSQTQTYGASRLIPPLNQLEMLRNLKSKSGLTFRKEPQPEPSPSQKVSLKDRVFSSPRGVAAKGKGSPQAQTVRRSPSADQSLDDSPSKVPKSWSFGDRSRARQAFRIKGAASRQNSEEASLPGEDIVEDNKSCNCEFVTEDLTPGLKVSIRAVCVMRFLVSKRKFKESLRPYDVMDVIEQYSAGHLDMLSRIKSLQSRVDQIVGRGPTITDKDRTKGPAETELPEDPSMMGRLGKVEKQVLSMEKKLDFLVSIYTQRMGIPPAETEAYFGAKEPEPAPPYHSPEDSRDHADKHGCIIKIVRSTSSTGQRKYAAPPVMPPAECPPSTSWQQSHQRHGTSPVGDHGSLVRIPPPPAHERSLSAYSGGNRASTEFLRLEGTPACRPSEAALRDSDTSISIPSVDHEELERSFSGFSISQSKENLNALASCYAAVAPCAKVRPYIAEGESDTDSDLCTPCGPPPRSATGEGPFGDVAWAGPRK
KCNQ2 block baseline – also measured in KCNQ2 block; calls as there; B-score; measured here: initial fluorescence intensity artifact check;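 brightness before thallium and not channel activity; 0 = typical well and far values either way flag optical interference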
An asterisk follows results filed as active; i = inactive. The list is partial. The share of hits here may be higher or lower than overall.

KCNQ2 block	KCNQ2 block baseline	Structure
i	-0.49	O=C(O)c1ccc(N/N=C/C=C/c2ccccc2)cc1
i	-0.52	Cc1cc2oc(=O)cc(Cn3nnc(-c4ccc(Cl)cc4)n3)c2cc1C(C)C
i	-1.2	O=C1Nc2ccccc2S/C1=C/Nc1cccc(Cl)c1
i	-2.5	O=C1C2=C(Nc3ccccc3SC2c2ccco2)c2ccccc21 (stereo not given)
i	0.49	O=C(COc1ccc(Cl)cc1[N+](=O)[O-])NC1CCCCC1
i	0.04	COc1ccc(C2Nc3ccccc3C(=O)N2NS(C)(=O)=O)c(OC)c1 (stereo not given)
i	0.14	O=C(NCc1ccccc1)c1cc[n+]([O-])cc1
i	-1.4	COc1cccc(CN2CCNC(=O)C2CC(=O)NC2CCCCCCC2)c1 (stereo not given)
i	2.5	CC(=O)/C(=C\N(C)C)Sc1ccc(C)cc1
i	1.4	COC(=O)C1CCN(C(=O)/C(C)=C\c2ccccc2)CC1
i	-0.39	Clc1ccc(OCCn2c(-c3ccco3)nc3ccccc32)cc1
i	2.7	OCc1ccnc(Cl)c1
i	-0.36	Oc1ccc(N=C/C=C/c2cccc(Br)c2)cc1-c1nc2ccccc2s1
i	3.8	COc1cc2c(cc1C1NC(=S)NC(C)=C1C(=O)N(C)C)CCCC2 (stereo not given)
i	0.97	CC1(C)CC2CC(C)(CN2C(=O)COc2cccc3ccccc23)C1 (stereo not given)
i	1.7	CC(C(=O)Nc1ccccc1F)N1CCN(C)CC1 (stereo not given)
i	0.59	CCNc1nc(SCCOc2ccc(Cl)cc2Cl)nc(N(C)C)n1
i	-0.12	CCOC(=O)N1CCN(C(=O)C2COc3ccccc3O2)CC1 (stereo not given)
i	0.02	CCOc1ccccc1-n1c(SCC(=O)NC)nnc1-c1ccco1
i	1.8	Cc1cc(C)cc(N(CCC#N)C(=O)CSc2n[nH]c(N)n2)c1
i	-0.46	Cc1ccc(CNC(=O)CSc2nc(=O)n3cccc(C)c3n2)cc1
i	0.25	Cc1ccc(-n2c3c(cc(C(=O)NCc4ccco4)c2=O)C(=O)CC(C)(C)C3)cc1
i	-0.25	Cc1cc(NC(=O)c2cccnc2)ccc1NC(=O)c1ccco1
i	0.69	COc1cc(-c2nnc(SCc3c(F)cccc3Cl)o2)cc(OC)c1OC
i	1.4	CC1CCCCN1S(=O)(=O)c1ccc(S(=O)(=O)N2CCN(c3ccccc3)CC2)cc1 (stereo not given)
i	-0.71	O=C(Cn1ccc(C(F)(F)F)n1)N/N=C/c1cccs1
i	-1.7	Cc1ccc2ccccc2c1COC(=O)c1nonc1N
i	0.55	O=C1C(=O)N(CCN2CCOCC2)C(c2ccc(F)cc2)/C1=C(/O)c1ccc(S(=O)(=O)N2CCOCC2)cc1 (stereo not given)
i	0.29	CN(C)CCn1c2c(c(SCC(=O)Nc3ccc4c(c3)OCCO4)nc1=O)CCCC2
i	-1.2	Cc1ccc(CC(=O)N2CCN(S(=O)(=O)c3ccccc3)CC2)cc1C
i	0.2	O=C1c2ccccc2S(=O)(=O)c2cc(C(=O)N3CCN(c4ccccc4)CC3)ccc21
i	0.33	CC(NC(=O)c1cc2cc(Cl)ccc2oc1=N)c1ccccc1 (stereo not given)
i	-0.16	CC(C)CC(=O)NC(=S)Nc1ccccc1N1CCCC1
i	1	C[C@]12C(=O)N(c3ccc(Cl)cc3)C(=O)N1[C@H]1c3ccccc3OC[C@@H]1[C@H]2c1ccccc1
i	1.5	O=C(C1CCN(c2nnc(-n3cccc3)s2)CC1)N1CCOCC1
i	0.85	COc1ccc(OCC(O)Cn2c(N)nc3c2c(=O)[nH]c(=O)n3C)cc1 (stereo not given)
i	-0.36	CCCCCCC1CCC(C(=O)Nn2c(C)nc3ccccc3c2=O)CC1 (stereo not given)
i	0.31	O=C(O)c1ccc2c(=O)n3c(nc2c1)/C(=C/c1ccc(C(F)(F)F)cc1)CC3
i	-0.14	COc1ccc(-c2csc3ncnc(N4CCN(S(=O)(=O)c5ccc(C(C)=O)cc5)CC4)c23)cc1
i	-0.97	COc1ccc(NC(=S)c2ccc3ccccc3n2)cc1

Grouped by structure: those above with two or more sulfur atoms.
KCNQ2 block	KCNQ2 block baseline	Structure
i	1.4	CC1CCCCN1S(=O)(=O)c1ccc(S(=O)(=O)N2CCN(c3ccccc3)CC2)cc1 (stereo not given)
i	-0.14	COc1ccc(-c2csc3ncnc(N4CCN(S(=O)(=O)c5ccc(C(C)=O)cc5)CC4)c23)cc1

The results go on:
KCNQ2 block	KCNQ2 block baseline	Structure
i	0.92	COc1ccc(N2CCN(C(=O)c3ccc(OCC4CCCO4)cc3)CC2)cc1 (stereo not given)
i	0.16	Cc1cc(C(=O)NC(C)c2ccccc2)c2cc(F)ccc2n1 (stereo not given)
i	-0.02	O=C(NCc1cccs1)C1CC(=O)N(c2ccc(F)cc2)C1 (stereo not given)
i	-0.32	CC(C)NC(=S)N/N=C/c1ccccc1[N+](=O)[O-]
i	-0.32	CCN(CC)c1ccc(CNc2nc3ccccc3n2C(C)C)cc1
i	-2.1	C/C(=N\NS(=O)(=O)c1c(C)cc(C)cc1C)c1ccncc1
i	0.87	CCN(C(=O)CSc1nc(N)cc(N)n1)C1CCS(=O)(=O)C1 (stereo not given)
i	-0.15	COc1ccc(NC(=O)CSc2nnc3ccc(-c4ccccn4)nn23)cc1
i	0.67	O=C1CC(=O)N(Cc2ccco2)C(=O)N1
i	0.16	CC(C)c1ccc(-c2nnn(CCC#N)n2)cc1
i	2.2	COc1ccc(Cl)cc1S(=O)(=O)N1CCN(c2ccc(F)cc2)CC1
i	-1.8	O=C1OC(C(=O)Nc2nccs2)Cc2ccccc21 (stereo not given)
i	-0.33	CCOC(=O)C1CCCN(C(=O)CSc2ccc(Br)cc2)C1 (stereo not given)
i	0.12	Cc1oncc1C(=O)N1CCCC(CO)(Cc2ccc(F)cc2F)C1 (stereo not given)
i	-0.05	Cc1ccc(C(=O)Nc2ccc3c(c2)OCCO3)c(Cl)c1
i	0.45	O=C(C1=C[C@@H](c2coc3ccccc3c2=O)C[C@@H](OCc2ccc(CO)cc2)O1)N1CCN(Cc2ccc3c(c2)OCO3)CC1
i	2.1	Cc1cc(C)n2nc(SC3CCCCN(C(=O)c4ccc(F)cc4)C3=O)nc2n1 (stereo not given)
i	1	COc1cc(OC)c(S(=O)(=O)N2CCOCC2)cc1S(=O)(=O)N1CCOCC1
i	1.1	CCCN1C(=O)/C(=C/c2nc3ccccc3c(=O)[nH]2)c2cc(C)ccc21
i	-0.02	C=C(C)Cn1c(SCC)nc2ccccc2c1=O
i	-0.21	COC(=O)c1c(NC(=O)COC(=O)CCc2ccc(S(=O)(=O)N3CCOCC3)cc2)sc2c1CCC2
i	-2.4	Cc1cccc(C)c1OCC(=O)Nn1c(C)nc2ccccc2c1=O
i	1.5	CC(C)C[C@H](NC(=O)c1nc[nH]c1C(=O)N[C@@H](CCCCNC(=O)OC(C)(C)C)C(=O)OC(C)(C)C)C(=O)OCc1ccccc1
i	0.45	O=C(NNC(=O)c1ccc([N+](=O)[O-])cc1Cl)c1ccncc1
i	-1.1	Cc1c(C(c2cccc(Br)c2)c2c(C)n(C)n(-c3ccccc3)c2=O)c(=O)n(-c2ccccc2)n1C
i	1.6	COc1cc(SC)ccc1C(=O)OCC(=O)NCCNC(=O)COC(=O)c1ccc(SC)cc1OC
i	-0.21	O=C(c1ccco1)N1CCCC(c2nc3c(nnn3Cc3c(Cl)cccc3Cl)c(=O)[nH]2)C1 (stereo not given)
i	-0.67	Cc1cc2nc(-c3ccc(SCc4ccccn4)nc3)[nH]c2cc1C
i	-0.86	CCn1cc([N+](=O)[O-])c(C(=O)N2CCN(C(=O)c3ccco3)CC2)n1
i	-1.3	O=C(Nc1ccccc1C(=O)N1CCN(c2ccccc2)CC1)c1ccco1
i	0.01	Cc1ccc(C(OCC(O)CN2CCCCC2)c2ccccc2)cc1 (stereo not given)
i	0.03	COc1ccc(NS(=O)(=O)c2ccc3oc(SCC(N)=O)nc3c2)cc1
i	-1.3	CCCCC(C(=O)NC(C)(C)C)N(Cc1ccccc1)C(=O)c1snc(C(N)=O)c1N (stereo not given)
i	-1.2	COC(=O)c1cccc([N+](=O)[O-])c1CN1CCCC(C(N)=O)C1 (stereo not given)
i	0.08	CC(C)C1Cc2ccccc2-c2[nH]c(=S)[nH]c(=O)c21 (stereo not given)
i	-0.52	O=C1CC(C(=O)Nc2cc(Cl)ccc2Cl)n2ncnc2N1 (stereo not given)
i	-0.26	CNC(=S)N(CCc1c(C)[nH]c2ccc(C)cc12)Cc1cccs1
i	-0.73	COc1ccccc1/C=C/C=N/n1c(-c2ccco2)n[nH]c1=S
i	0.55	CCOc1cccc(CNCc2ccc(C(=O)O)cc2)c1
-7.8*	-0.08*	COc1cccc(-n2nnnc2S(C)(=O)=O)c1

In the list so far, these contain a cyano group:
KCNQ2 block	KCNQ2 block baseline	Structure
i	1.8	Cc1cc(C)cc(N(CCC#N)C(=O)CSc2n[nH]c(N)n2)c1
i	0.16	CC(C)c1ccc(-c2nnn(CCC#N)n2)cc1

Further entries
KCNQ2 block	KCNQ2 block baseline	Structure
i	9.3	CC(C)(C)c1ccc(-c2nc(C#N)c(NCCCn3ccnc3)o2)cc1
i	3.5	CCOC(=O)C1(CCOC)CCN(C(=O)Cc2ccsc2)CC1
i	-1.2	Cc1ccc(S(=O)(=O)N(CC(=O)c2ccccc2)C(=O)N2CCN(C)CC2)cc1
i	0.81	CC(=O)N(C)c1ccc(N=C2C(=O)Nc3ccccc32)cc1
i	-0.68	O=c1cc(N2CCN(c3ccccc3F)CC2)[nH]c(=O)n1-c1ccc(Br)cc1
i	-0.88	CCSc1nnc(N2C(=O)c3ccc(C(=O)c4ccc(C(=O)O)cc4)cc3C2=O)s1
i	0.7	CCOC(=O)c1nc(C)nc(Sc2n[nH]c(-c3cc(C(F)(F)F)cc(C(F)(F)F)c3)n2)c1C
i	-0.9	COc1ccccc1OCC(O)Cn1c(=N)n(Cc2ccccc2)c2ccccc21 (stereo not given)
i	-0.14	CC1=C(C(=O)Nc2ccc(C)cc2C)C(c2ccc(Cl)cc2)n2nc(C(=O)OC(C)C)nc2N1 (stereo not given)
i	-0.02	Cc1ccc(SCC(=O)N2N=CCC2c2ccccc2)cc1 (stereo not given)
i	-1.4	CCCN(CC(=O)Nc1ccccc1OC)C(=O)CCNC(=O)c1ccccc1OC
i	0.14	CC(C)CNC(=O)c1ccccc1NC(=O)c1ccc(CN2CCOCC2)cc1
i	-0.78	COCCn1c(-c2ccccc2)nc2oc3cc(OC)ccc3c(=O)c2c1=O
i	3.5	CCOC(=O)C1CCCCN1Cc1cccc(OCc2ccccc2)c1 (stereo not given)
i	-0.54	O=C(c1ccccc1F)N1CCN(Cc2cccc(Cl)c2)CC1
i	-0.13	Cc1ccccc1NC(=S)N1CCN(c2ccccc2Cl)CC1
-6.8*	0.65*	COc1cccc([C@@H]2Oc3ccc(OC)cc3C(=O)[C@H]2OC(=O)N[C@H](C)C2CCCCC2)c1
i	-0.21	C/C(=N\NC(=O)c1cccc(S(=O)(=O)N2CCCC2)c1)c1ccccc1F
i	1.1	CCOC(=O)C(NC(=O)c1ccccc1)(OCc1ccccc1)C(F)(F)F (stereo not given)
i	-0.82	O=C(NC1CCCCC1)C1CCC(=O)N(Cc2cccc(C(F)(F)F)c2)C1 (stereo not given)

Retrieved one by one from the entries so far (6):
KCNQ2 block	KCNQ2 block baseline	Structure
i	-0.78	COCCn1c(-c2ccccc2)nc2oc3cc(OC)ccc3c(=O)c2c1=O
i	-0.02	Cc1ccc(SCC(=O)N2N=CCC2c2ccccc2)cc1 (stereo not given)
i	3.5	CCOC(=O)C1CCCCN1Cc1cccc(OCc2ccccc2)c1 (stereo not given)
i	-0.9	COc1ccccc1OCC(O)Cn1c(=N)n(Cc2ccccc2)c2ccccc21 (stereo not given)
i	-0.14	CC1=C(C(=O)Nc2ccc(C)cc2C)C(c2ccc(Cl)cc2)n2nc(C(=O)OC(C)C)nc2N1 (stereo not given)
i	0.14	CC(C)CNC(=O)c1ccccc1NC(=O)c1ccc(CN2CCOCC2)cc1

More records:
KCNQ2 block	KCNQ2 block baseline	Structure
i	2.4	CCc1nnc(NC(=O)CCN2C(=O)CCC2=O)s1
i	-1.1	CCCCN(CCCNC(=O)Cn1nc(CC)n2c(cc3sc(C)cc32)c1=O)Cc1ccccc1
i	-0.29	COc1ccc(-n2c(COc3ccc(C)cc3)nnc2SCC(=O)O)cc1
i	-0.74	NC(=S)N/N=C/c1coc2c(ccc3ccccc32)c1=O
i	0.91	NC1=C(c2ccccc2)C(=O)NC1=O
i	0.19	COc1cccc(-c2nc(CS(=O)(=O)CC(=O)NC3CCCC3)c(C)o2)c1
-5.9*	0.04*	COC(=O)N(NC(=O)C(O)(c1ccccc1)c1ccccc1)c1ccc(C)cc1
i	-0.12	O=C(NCCN1CCOCC1)c1cccc(S(=O)(=O)NCc2ccccc2)c1
i	0.22	CCOC(=O)c1oc2cc(O)c(CC)cc2c(=O)c1-c1ccc2c(c1)OCCO2
i	-1.1	COc1ccc(/C=N/NC(=O)c2cccc(O)c2)cc1Cn1nc(C)c([N+](=O)[O-])c1C
i	-1.4	C/C=N/NC(=O)c1cc(Br)ccc1O
i	-2.6	COc1cccc(CNC(=O)C2CCCN(S(=O)(=O)c3cnc[nH]3)C2)c1 (stereo not given)
i	-0.01	CC(Oc1ccccc1)C(=O)N1CCC2(CC1)Oc1ccc(F)cc1C(=O)C21CC(c2cccnc2)=NO1 (stereo not given)
i	0.14	Cc1cc(C)cc(NC(=S)N2CCN(S(=O)(=O)c3ccccc3)CC2)c1
i	0.26	COc1ccc(C2/C(=C(\O)c3ccc4c(c3)OCCO4)C(=O)C(=O)N2CCCN(C)C)cc1 (stereo not given)
i	1.3	O=C(CNS(=O)(=O)c1ccc(Br)cc1)N1CCN(Cc2ccccc2)CC1

High-throughput results as filed in PubChem.
